Screens (PubChem)
Sa RN4220 lethal – S. aureus RN4220 growth inhibition; OD600, 16 h; inhibition, % (no concentration beside the values); 0.33% of 330,000 active; AID 1259311;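 active = z-score of -3 or lower and OD600 up to 0.18 on both plates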;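 note: plate controls were untreated cells for no effect and reference antibiotic for full effect; stock transfer was 100 nL into about 80 µL; one replicate is shown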
PrP UTR inh – inhibition of PrP 5' UTR reporter expression; 0.35% of 340,000 active; AID 488862; inhibition, % (no concentration beside the values); cell-based PrP 5' UTR mRNA reporter, plate reader;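 active = every replicate at 50% or more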;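 note: 0 = median of the neutral control wells; tested in H4 reporter cells; numbers are from one replicate; inactives centre near -14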
Mtb hypoxia inh – reduces hypoxia-regulated biosensor signal in M. tuberculosis; M. tuberculosis hypoxia-regulated fluorescent reporter, fluorescence; fluorescence inhibition, % (no concentration beside the values); 0.1% of 300,000 active; AID 1159583;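 active = 35 to 45% if threefold the growth effect, above 45% if 1.5-fold the growth effect; inactive = the rest, general growth blockers included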;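 note: wells of about 50 µL received 100 nL stock; 0% = vehicle wells and 100% = reference inhibitor wells; whole bacteria with a GFP reporter of the hypoxia response; strong numbers were not always called active; many hits fall short of the cut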
ugtP null kill – growth inhibition of S. aureus ugtP deletion strain | S. aureus RN4220 ugtP deletion, OD600 growth, 16 h; some inactives read as strong as hits | 0.54% of 330,000 active | AID 1259309 | growth inhibition, % (test concentration not listed);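 active = z-score under -3 and OD600 up to 0.15 on both plates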;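 note: plate controls were untreated wells for no effect and antibiotic for full effect; wells of about 80 µL received 100 nL stock; the first replicate is given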
BJeLR lethal – BJeLR cell viability loss | inhibition, % (concentration not given with the values) | BJeLR (HRASV12) viability, CellTiter-Glo ATP luminescence, 48 h; reference of the scale not given here | 0.17% of 300,000 active;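 active = replicate mean above 50%; inconclusive = above 50% but judged a plate artefact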;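 note: 50 nL library stock added to about 25 µL; numbers are from one replicate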
Bead autofluor – flagged as autofluorescent in microsphere protease counterscreen; compound autofluorescence counterscreen, microsphere flow cytometry; hits give high values; fluorescence intensity (test concentration not listed); 3.1% of 360,000 active; AID 624483;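 active = at least 3 SD above the mean of all compounds, about 16000 in these data; inconclusive = too few beads counted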;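 note: 100 nL of 1 mM stock went into each well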
Mtb hypoxia inh growth – second read-out of Mtb hypoxia inh, no call of its own (marks repeat the call); growth inhibition, %; measured here: M. tuberculosis growth (absorbance);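 0% = vehicle and 100% = reference antibiotic; read after six days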
Numbers without * were called inactive; ? = inconclusive; . = no result given.

SMILES | Sa RN4220 lethal | PrP UTR inh | Mtb hypoxia inh | Mtb hypoxia inh growth | ugtP null kill | BJeLR lethal | Bead autofluor
Cc1ccc(C)n1C1CCS(=O)(=O)C1 (stereo not given) | 2.1 | -9 | . | . | 2 | -3 | 3570
COc1ccc2c(c1)[nH]c1c(=O)n(/N=C/C3C(C)C=C(C)CC3C)c(=O)[nH]c12 (stereo not given) | . | -12 | . | . | . | 14 | 2016
Cc1sc2c(c1C)CN(CCN1CCOCC1)CN2C(=O)c1ccccc1 | 7.4 | -17 | 7 | 5 | 3 | 1 | 2497
Fc1ccc(CNC(=S)NC2CCCCCC2)cc1 | 1.1 | -6 | 21 | 15 | 5 | -5 | 4256
NS(=O)(=O)c1ccc(N=Cc2ccc(Br)s2)cc1 | . | -65 | . | . | . | 6 | 6630
COc1cc(SC)ccc1C(=O)NCCCOC(C)C | 5.2 | -23 | 18 | 5 | 8 | 2 | 10024
CC(C)CNC(=O)CC(=O)N/N=C/c1ccc(F)cc1 | . | -16 | . | . | . | -11 | 8596
O=C(CSc1nnc(NC(=O)c2cc(Br)ccc2Cl)s1)NCC1CCCO1 (stereo not given) | -6.6 | -24 | 5 | 4 | 10 | -13 | 5642
CC(C)Sc1cc(Cl)nc(NC(=O)Nc2ccccc2)n1 | -2.4 | -4 | -6 | -18 | 2 | 2 | 2950
C#CCOCCOCCOCCNc1nc(N2CCN(C(=O)C(Cc3ccc(O)cc3)n3cc(C(N)C(C)CC)nn3)CC2)nc(N2CCN(C(=O)C(C(C)CC)n3cc(C(N)COC(=O)C(F)(F)F)nn3)CC2)n1 (stereo not given) | 5.8 | . | 7 | 18 | 5 | . | .
CC(C)(C)NC(=O)CN(Cc1cccs1)C(=O)CNS(=O)(=O)c1ccccc1 | 1.4 | -17 | 7 | 4 | -9 | -5 | 22030*
COc1ccc(Nc2ncc(F)c(N3CCOCC3)n2)cc1 | 8.4 | -46 | 13 | 3 | -6 | -5 | 3287
CN1CCN(C2=Nc3c(Cl)cc(Cl)c4cccc2c34)CC1 | -0.4 | -28 | 22 | 26 | -8 | 12 | 4217
Cc1c(N2C(=O)C(=O)/C(=C(/O)c3ccc(Cl)cc3)C2c2ccccc2)c(=O)n(-c2ccccc2)n1C (stereo not given) | -1.6 | -15 | 13 | 8 | -1 | -5 | 2187
COc1ccc(-c2nnc(SCC(=O)NC3CC3)o2)c(OC)c1 | 1.4 | -22 | 6 | 1 | 7 | . | 4536
COc1cc2nc(CN(C)CC(=O)Nc3ccc(N4CCOCC4)cc3)[nH]c(=O)c2cc1OC | -0.4 | -6 | . | . | -5 | . | 2751
CCOc1ccc(S(=O)(=O)Nc2ncn[nH]2)cc1 | 5.5 | -28 | 3 | 0 | 22 | 4 | 3768
CC(C)N1CCc2c(sc(NC(=O)CCS(=O)(=O)c3ccccc3)c2C(N)=O)C1 | -2.7 | 5 | 5 | 13 | 1 | 9 | 6032
CC(=O)Nc1ccc(C(=O)COC(=O)c2nc3nc(C)cc(C)n3n2)cc1 | 3.4 | -19 | 1 | 6 | 4 | . | 3499
COc1cccc(CNC(=O)Cn2cc3c(n2)CCCCC3)c1 | -0.9 | -19 | . | . | 14 | 8 | 4401
O=C(O)c1ccccc1Sc1ccccc1S(=O)(=O)NC1CCCCC1 | 5.0 | -31 | 5 | 5 | 5 | 11 | 4340
CN1CC(C(=O)c2ccc([N+](=O)[O-])cc2)C(c2ccc(Cl)cc2)C1 (stereo not given) | -2.0 | -23 | 1 | 5 | 10 | 7 | 3568
CC(Nc1c([N+](=O)[O-])c(=O)oc2ccccc12)C(Cl)c1ccccc1 (stereo not given) | 5.0 | -8 | 6 | 5 | 0 | 19 | 2420
COc1ccc(NC(=O)CSc2nncn2C)c([N+](=O)[O-])c1 | 4.8 | -61 | 6 | 14 | 4 | -3 | 9901
COc1ccccc1NC(=O)c1cc(S(=O)(=O)N2CCC3(CC2)OCCO3)ccc1F | 2.1 | -25 | 6 | 11 | 8 | -8 | 20818*
O=C1N/C(=C\c2ccc(O)cc2)C(=O)c2ccccc21 | 7.7 | -30 | 8 | 8 | -7 | 9 | 19019*
O=C(Cn1nnc(-c2cccs2)n1)NCCc1ccccc1 | -4.6 | -8 | . | . | 2 | 1 | 4569
CCCN1CCN(C(=O)C2CCN(S(=O)(=O)c3ccc4c(c3)NC(=O)C(C)S4)CC2)CC1 (stereo not given) | 0.7 | -17 | 1 | 3 | 4 | 10 | 6661
CCCCOC(=O)c1sc2nc(C)cc(C)c2c1N | 5.1 | . | 7 | -2 | -1 | 12 | .
CCOc1cc(C2C(C#N)=C(N)OC(C)=C2C(C)=O)c(Br)c(Br)c1OC(C)C (stereo not given) | . | -23 | . | . | . | 33 | 21864*
CCOC(=O)c1ccc(N2CCOCC2)c(NC(=O)c2ccc3c(c2)OCO3)c1 | . | -11 | . | . | . | 7 | 6780
O=S1(=O)N=C2CCCCCN2C(c2ccncc2)N1 (stereo not given) | -2.6 | -22 | . | . | 0 | -10 | 3616
O=C(NCc1ccco1)NC(=O)c1csc([N+](=O)[O-])c1 | 4.9 | -7 | 6 | 8 | 18 | 1 | 3983
Cc1nnc(SCc2c(Cl)cccc2Cl)n(N)c1=O | 3.7 | -13 | 2 | -9 | 4 | 6 | 4415
O=C(Nc1ccc([N+](=O)[O-])cc1)Nc1ccc(N2CCOCC2)c2nonc12 | -2.8 | -24 | 7 | 0 | -3 | -8 | 3263
N/C(=N\OC(=O)c1ccc(Cl)cc1Cl)c1cccnc1 | 3.0 | -87 | 10 | 18 | 1 | -1 | 2527
CN(CC1COc2ccccc2O1)C(=O)CSc1ncnc2sccc12 (stereo not given) | 2.7 | -6 | 5 | 7 | -5 | . | 4276
O=C(Nc1nc(-c2ccccc2)cs1)c1ccccc1NS(=O)(=O)c1ccc(F)cc1 | 93* | -6 | 12 | 10 | 95* | 31 | 2484
CC1OC(OC2C(O)C(C)OC(OC(=O)[C@]34CCC(C)(C)CC3C3=CCC5[C@@]6(C)CC(O)C(OC7OC(CO)C(O)C(O)C7O)[C@@](C)(C(=O)O)C6CC[C@@]5(C)[C@]3(CO)CC4)C2OC2OC(C)C(OC3OCC(OC4OC(CO)C(O)C(O)C4O)C(O)C3O)C(O)C2O)C(O)C(O)C1O (stereo not given in full) | 7.2 | . | 17 | 5 | -4 | . | .
CC(=O)c1cccc(NC(=O)CC2CCCC2)c1 | 6.0 | -11 | 5 | 5 | -1 | 4 | 5538
COc1ccc(N2CCN(C(=O)C3CCN(C(=O)c4ccccc4Cl)CC3)CC2)cc1 | 1.9 | -16 | -6 | 4 | 14 | -6 | 3952
CCc1nc2ccc(C(=O)N3CCN(c4cc(C)ccc4C)CC3)cc2nc1CC | 0.3 | -15 | 10 | 3 | -16 | -4 | 5781
O=C(Nc1ccncc1)c1c(F)c(F)c(F)c(F)c1F | 2.6 | -12 | 17 | 10 | 4 | 4 | 3111
COc1ccc(OCC(=O)NNC(=O)C2CCN(c3ncnc4sc(C)c(C)c34)CC2)cc1 | -2.3 | 3 | -7 | 9 | -7 | . | 3800
C[C@@H]1O[C@@H](OC[C@H]2O[C@@H](Oc3c(-c4ccc(O)cc4)oc4cc(O)cc(O)c4c3=O)[C@H](O)[C@@H](O)[C@@H]2O)[C@H](O)[C@H](O)[C@H]1O | -0.5 | -21 | . | . | -2 | 3 | 4772
C/C(=N\Nc1ccc2nncn2n1)c1ccc(Br)s1 | . | -22 | . | . | . | 8 | 3865
CC(=O)N(CCC1(c2ccc(C)cc2)CCOC(C(C)C)C1)Cc1ccco1 (stereo not given) | 3.7 | -19 | 1 | 9 | 3 | -1 | 5406
CC(Oc1ccccc1)C(=O)NC1CCSc2ccccc21 (stereo not given) | 2.1 | -27 | 8 | 6 | 0 | . | 2897
CCn1c(SCC(=O)c2[nH]c(C)c(C(C)=O)c2C)nnc1-c1ccccc1 | 5.5 | 1 | 12 | 1 | 5 | -1 | 3115
COC(=O)c1ccc(S(=O)(=O)N2CCC(c3nc4ccccc4o3)CC2)cc1 | 4.1 | -37 | 3 | 0 | 4 | -3 | 9979
N#CC(C(=O)CCN1C(=O)C2CC=CCC2C1=O)c1nc2ccccc2[nH]1 (stereo not given) | -0.3 | -14 | . | . | -1 | 2 | 4625
CCOc1ccc2nc(SC3CC(=O)N(c4ccc(OC)cc4)C3=O)sc2c1 (stereo not given) | 11 | -20 | -1 | 8 | 16 | 1 | 8914
COc1ccc(C(=O)NCC(=O)NCC(=O)OCC(=O)c2ccc(Br)cc2)cc1 | 3.7 | -10 | 11 | 16 | 8 | 4 | 5308
Cc1cccc(NC(=O)CSc2nnc([C@@H](N)Cc3ccccc3)o2)c1C | 1.1 | -17 | 20 | 12 | 4 | -4 | 9722
Cc1nc2sc(C(c3cccc(F)c3)N3CCC(O)CC3)c(O)n2n1 (stereo not given) | 3.5 | -17 | . | . | 7 | -2 | 4761
O=C(NN1S(=O)(=O)c2ccccc2S1(=O)=O)c1ccc(Br)cc1 | . | 42 | . | . | . | 4 | 3298
CC1=CC(=C2C(=O)c3ccccc3C2=O)C=C(C)O1 | 0.0 | -51 | 21 | 8 | 6 | 5 | 2431
CCOc1ccccc1NC(=O)Cn1cnc2c(cnn2-c2ccc(C)c(C)c2)c1=O | 7.7 | -11 | 10 | 6 | -1 | -5 | 2820
CCCCn1c(N)c(N(CCOC)C(=O)CSCc2cccc(C)c2)c(=O)[nH]c1=O | 2.9 | -8 | 3 | -7 | 6 | -13 | ?
C/C(=N\Nc1ccc(F)cc1F)c1ccc(Br)s1 | . | -6 | . | . | . | 3 | 4601

Reformatted with two lines to a compound: 5 of the compounds above
Value order – Sa RN4220 lethal, PrP UTR inh, Mtb hypoxia inh, Mtb hypoxia inh growth, ugtP null kill, BJeLR lethal, Bead autofluor
- Cc1nc2sc(C(c3cccc(F)c3)N3CCC(O)CC3)c(O)n2n1 (stereo not given)
  3.5, -17, ., ., 7, -2, 4761
- O=C(NN1S(=O)(=O)c2ccccc2S1(=O)=O)c1ccc(Br)cc1
  ., 42, ., ., ., 4, 3298
- CC1=CC(=C2C(=O)c3ccccc3C2=O)C=C(C)O1
  0.0, -51, 21, 8, 6, 5, 2431
- CCOc1ccccc1NC(=O)Cn1cnc2c(cnn2-c2ccc(C)c(C)c2)c1=O
  7.7, -11, 10, 6, -1, -5, 2820
- CCCCn1c(N)c(N(CCOC)C(=O)CSCc2cccc(C)c2)c(=O)[nH]c1=O
  2.9, -8, 3, -7, 6, -13, ?

The list goes on:
SMILES | Sa RN4220 lethal | PrP UTR inh | Mtb hypoxia inh | Mtb hypoxia inh growth | ugtP null kill | BJeLR lethal | Bead autofluor
CC1CCc2c(sc(N)c2C(N)=O)C1 (stereo not given) | 0.2 | -14 | 0 | 2 | 7 | 6 | 17162*
COc1ccc(S(=O)(=O)N(CC(=O)Nc2ccc(S(=O)(=O)N3CCOCC3)cc2)Cc2ccc(F)cc2)cc1 | 9.3 | -17 | 0 | 2 | 2 | -3 | 10767
O=C(Nc1ccn(Cc2ccc(Cl)cc2)n1)c1ccc2c(c1)OCO2 | -2.4 | -27 | 7 | 9 | -4 | 14 | 24410*
O=C(Nc1sc2c(c1C(=O)O)CCCCC2)c1cccnc1 | 3.3 | -10 | -3 | -2 | -2 | 5 | 3442
O=C(NCc1nnc(SCC(=O)N2CCc3ccccc32)o1)c1ccco1 | 1.8 | -8 | -5 | 5 | 5 | -11 | 2055
COC(=O)[C@@H](N)CS | . | -24 | . | . | . | 7 | 6298
CCC(C)(C)NC(=O)C(c1ccc(C)cc1)N(CC1CCCO1)C(=O)c1csnn1 (stereo not given) | -0.7 | -31 | 7 | -1 | 3 | 10 | 2987
O=C(Nc1ccc(F)cc1)Oc1ccccc1N1CCOCC1 | 3.9 | -14 | 10 | 5 | 5 | -14 | 5937
CC(CCc1ccccc1)NC(=O)C(Cc1ccccc1)NS(=O)(=O)c1cccs1 (stereo not given) | -1.6 | -15 | 3 | -9 | -2 | -2 | 10466
COc1cccc(NC(=O)CN(C)C(=O)Cc2n[nH]c(=O)c3ccccc23)c1 | 4.4 | -3 | 18 | 20 | 10 | . | 2985
COC(=O)CS(=O)(=O)c1ccc2c(c1)CC(=O)N2 | 2.3 | -3 | . | . | -5 | -2 | 2124
